# VACV mCherry inh – vaccinia inhibition (mCherry reporter). AID 720579. 310,000 tested, 0.63% active. Potency, µM (top dose mostly 36.5 µM), inactives show at the highest dose activity change, negative = inhibition, usual class: inhibitors. Vaccinia virus mCherry reporter infection, fluorescence; about a quarter of the inactives have no number; active = well fitted inhibition curve with a large enough effect; inconclusive = small, poorly fitted or top-dose-only effect; inactive = no such curve, though single readings can be large or run the other way; tested in A549 cells; further: nearly all actives have a fitted effect of over 35% in size; inactives centre near -10
# VACV Venus inh – inhibitors of vaccinia virus (Venus reporter). Vaccinia virus Venus reporter expression, fluorescence. Potency, µM (series often up to 36.5 µM), for inactives: top-dose activity change, negative = inhibition, actives largely listed as inhibitors. 330,000 tested, 0.46% active. AID 720580; active means well fitted inhibition curve with a large enough effect; inconclusive means small, poorly fitted or top-dose-only effect; inactive means no such curve, though single readings can be large or run the other way; tested in A549 cells; further: nearly all actives have a fitted effect of over 30% in size; inactives centre near -10
# Numbers without * were called inactive; i = inactive; ? = inconclusive; · = no result given; & = joins results of further samples; [ ] = another dose, or the depositor's remark. On the % scale 0 is the no-effect control and ±100 the full control effect; potency means the concentration at half of the fitted maximal effect.
# Screens in order – VACV mCherry inh | VACV Venus inh
COC(=O)c1cc(NC(=O)Cn2c(=O)oc3ccccc32)cc(C(=O)OC)c1
 : i | 0%
Cc1cc(CNC(=S)Nc2ccc(S(=O)(=O)Nc3ncccn3)cc2)nn1C
 : -12% | -9%
CCOc1ccc2nc(SCC(=O)c3ccc(Cl)s3)sc2c1
 : i | 0%
COc1ccc(C(=O)N2N=C(c3cccc(NS(C)(=O)=O)c3)CC2c2cccs2)cc1 (centres undefined)
 : -25% | -25%
C/C(=N\NC(=O)c1ccc(Cn2cc(Br)cn2)o1)c1ccc(NC(=O)c2ccoc2C)cc1
 : ? | ?
CC/C(=N/O)c1cnnc(SC)n1
 : -13% | -14%
O=C(Nc1ccc(S(=O)(=O)Nc2ccccc2)cc1)N1CCCC1
 : -6% | -12%
CCOC1=C2CN(S(=O)(=O)c3ccc(C)cc3)[C@H](c3cccs3)C[C@H]2n2c(=O)n(-c3ccccc3)c(=O)n2C1
 : 34%[activator] | 2%
COC(=O)C[C@]1(C(=O)OC)CN(C#N)N(c2ccc(Cl)cc2)C12c1ccccc1-c1ccccc12
 : 11µM* | ?
CNC(=O)COC(=O)CNC(=O)c1cc(Cl)cc([N+](=O)[O-])c1
 : 4% | 3%
O=C(CNC(=O)c1ccco1)NCCCc1ccccc1
 : 0% | -15%
COc1ccc2nc(C(F)(F)C(F)(F)F)c(C#N)c(N)c2c1
 : ? | -18%
CCOc1ccc(NS(=O)(=O)c2ccc3[nH]cc(C(=O)NC(C)CC)c(=O)c3c2)cc1 (centres undefined)
 : ? | -23%
O=[N+]([O-])c1cccc(S(=O)(=O)/N=C(/Nc2ccccc2)c2ccccc2)c1
 : i | -7%
Cc1cccc(CNC(=O)C2CCC(=O)N(CCCc3ccccc3)C2)c1 (centres undefined)
 : i | -15%
CCOCCCNS(=O)(=O)c1ccc(NC(=O)Cc2c(F)cccc2Cl)cc1
 : -3% | -7%
CC(CSc1n[nH]c(=S)s1)c1ccccc1 (centres undefined)
 : -1% | -16%
Cc1cccc2c(SCC(=O)NCC3CCCO3)nc(-c3ccc(F)cc3)nc12 (centres undefined)
 : -13% | -9%
Cc1ccc(NC(=O)C(=O)NCC2(c3ccccc3)CCCC2)cc1C
 : -16% | -15%
O=S(=O)(c1cccs1)N1CCN(c2ccc(Cl)cc2)CC1
 : -2%&-16% | -5%&-19%

# Next compounds follow.
# Screens in order – VACV mCherry inh | VACV Venus inh
C[C@]12CCC(=O)C=C1CCC1C2CC[C@@]2(C)C1CC[C@@H]2O (some centres undefined)
 : i | -14%
COc1ccc2[nH]c(=O)c(CN(CCN3CCCC3)C(=O)Nc3ccccc3Cl)cc2c1
 : · | -14%
C[C@H]1Cn2cnc(C(=O)Nc3ccccc3)c2C(=O)N1
 : -28% | ?
CCn1c(C)nc2cc(C(=O)NNC(=S)Nc3ccccc3)ccc21
 : -26% | -27%
O=C(N/N=C/c1sc2ccccc2c1O)c1cccc2ccccc12
 : ? | ?
COc1ccc(C)cc1NC(=O)C1CCCN(S(=O)(=O)c2ccc3[nH]c(=O)ccc3c2)C1 (centres undefined)
 : -12% | -12%&-10%
COc1ccc(/C=C/C(=O)NC(=S)Nc2ccc(S(=O)(=O)Nc3cc(C)on3)cc2)cc1
 : i | -9%
COc1ccc2oc(C(=O)NCC(c3ccco3)N(C)C)c(C)c2c1 (centres undefined)
 : -18% | -9%
CNC(=O)C1CC(=O)N(c2ccc(OCC(=O)Nc3ccccc3C)cc2)C1 (centres undefined)
 : -9% | -9%
CC(C)c1ccc(NC(=O)C2(C)Cc3c(-c4cccc(C(F)(F)F)c4)ccnc3O2)cc1 (centres undefined)
 : 30%[activator] | 6%
Cc1cccc(-c2ncc(CN3CCN(CCC(C)C)C(CCO)C3)cn2)c1 (centres undefined)
 : 0% | -14%
Cc1nn(C)c(C)c1S(=O)(=O)N1CCC(C(=O)Nc2ccc3c(c2)OCCO3)CC1
 : -11% | 2%
COc1ccc(Cn2c(=O)[nH]c3cc(C(=O)N4CCN(c5cccc(Cl)c5)CC4)ccc3c2=O)cc1
 : -13% | -11%
Cc1ccc(OCC(=O)N/N=C/C=C/c2ccco2)c(Br)c1
 : ? | 8%
N=c1oc2cc(O)ccc2cc1C(=O)Nc1nc2ccccc2s1
 : -12% | 8%
CN(C)[C@@H]1CCC[C@H]1OC(=O)C(c1ccccc1)c1ccccc1
 : -15% | -5%
CCCCCCOC(=O)CCn1[nH]c(=O)c2ccccc2c1=O
 : -14% | -5%
CC(C)(C)C(=O)Nc1nnc(CC(=O)NCc2ccccc2)s1
 : i | -17%
Cc1cc(C)n2nc(C(=O)Nc3ccn(Cc4ccccc4C)n3)cc2n1
 : -2% | -13%
O=C(COC(=O)c1c(F)cccc1F)Nc1ccccc1OC(F)F
 : -2% | -9%

# Later entries.
# Screens in order – VACV mCherry inh | VACV Venus inh
O=C(Nc1cc(-c2cccc(Cl)c2)nn1-c1ccccc1)c1ccccc1F
 : -7% | 6%
O=C(Cc1ccc(OCCc2ccccc2)cc1)NO
 : 12% | -8%
CCc1c(C#N)c(SCCC(=O)Nc2ccc(F)cc2)nc2c1C(=O)CC(C)(C)C2
 : · | ?
CC(C)(C)OC(=O)N1CCCN(C(c2cc3ccccc3o2)c2nnnn2C(C)(C)C)CC1 (centres undefined)
 : ? | ?
Cn1c(CCC(N)=O)nnc1SCC(=O)Nc1cc(S(=O)(=O)N2CCCC2)ccc1Cl
 : -10% | -7%
CC(Sc1nnc(COc2ccc([N+](=O)[O-])cc2)n1-c1ccccc1)C(=O)O (centres undefined)
 : 1% | -2%
COc1ccc(CCN2C(=O)N(c3ccc(C)cc3)C(=O)C2CC(=O)Nc2ccc(OC)cc2)cc1 (centres undefined)
 : -5% | -4%
CC1(C)C(c2ccccc2)=NC(c2ccc(Br)cc2)N1O (centres undefined)
 : -13% | -13%
COc1ccccc1N(CC(=O)NCC1CCCO1)C(=O)CCC(=O)Nc1cc(C)on1 (centres undefined)
 : -15% | -3%
CCC(C)Sc1cccc(-c2nc3ccc(C)cn3c2NC2CCCCC2)c1 (centres undefined)
 : ? | -17%&0%
CCOc1ccc(N2C(=O)Nc3ccccc3C2(O)C(=O)NCc2ccccc2)cc1 (centres undefined)
 : 0% | -8%
CN(C(=O)c1cc(S(=O)(=O)N2CCOCC2)cs1)c1ccccc1
 : i | -1%
COc1ccc(C(CC(=O)O)NS(=O)(=O)c2ccc(C)cc2)cc1OC (centres undefined)
 : · | 5%
CCOC(=O)Cc1csc(NC(=O)CSc2nc3cccnc3n2CC)n1
 : -13% | -9%
COc1ccc(C2C=C(c3ccccc3)Nc3nc(NS(=O)(=O)c4ccc(Cl)cc4)nn32)cc1 (centres undefined)
 : -8% | -14%
C[n+]1ccc(CO)cc1
 : 14% | -11%
CC1(C(=O)NS(C)(=O)=O)CCN1C(=O)C/C=C/c1ccccc1 (centres undefined)
 : -2% | -8%
COc1cc(C(=O)N/N=C(\C)Cc2ccccc2)cc(OC)c1OC
 : -26% | -27%
O=S(=O)(Nc1ccccn1)c1ccc(Oc2ccccc2)cc1
 : i | -10%
CC(=O)Nc1cccc(NS(=O)(=O)Cc2ccc(Cl)cc2)c1
 : -22% | -8%

# The list continues.
SMILES,VACV mCherry inh,VACV Venus inh
S=C(c1ccc(N2CCOCC2)cc1)N1CCOCC1,i,-2%
CN1CCN(C(=O)c2cc(Cl)ccc2NC(=O)c2ccc(Cl)cc2Cl)CC1,i,-8%
Cc1ccc(CNC(=O)/C=C/c2ccc(Br)o2)cc1,-7%,0%
CCOc1cc(S(=O)(=O)N2CCN(Cc3ccccc3)CC2)ccc1Br,·,6%
CC(=O)Nc1ccc(S(=O)(=O)Nc2nc(C)cc(-n3nc(C)cc3C)n2)cc1,i,0%
CNC(=S)NCc1ccc(OC)cc1,-14%,0%
O=C(NC(Cc1ccccc1)C(=O)NC(Cc1ccccc1)C(=O)O)c1ccccc1 (centres undefined),1%,-11%
O=[N+]([O-])c1cc(S(=O)(=O)N2CCCCC2)ccc1NCc1cccc(Cl)c1,-12%,-15%
CCN1CCOC(CC(=O)Nc2cccc([N+](=O)[O-])c2)C1=O (centres undefined),i,6%
O[C@@H]([C@H](O)[C@H](O)CBr)[C@H](O)CBr,i,-7%
CN1CCN(S(=O)(=O)c2cccc(S(=O)(=O)c3ccc(Cl)c(Cl)c3)c2)CC1,·,-1%
O=C(Nc1ccccc1)/C(=C/c1ccccc1)c1ccccc1,0%,-10%
C[C@@H]1CN([C@H](C)CO)C(=O)c2cc(NC(=O)Nc3cccc4ccccc34)ccc2O[C@H]1CN(C)Cc1ccc(C(F)(F)F)cc1,?,-9%
CCOC(=O)Cc1sc(N)nc1C,i,-6%
CC(C)[C@H](NC(=O)CCn1nnc2ccccc2c1=O)C(=O)O,-17%,?
COCC(C)n1c(C)cc(C(=O)COC(=O)c2oc3ccccc3c2C)c1C (centres undefined),-6%,-11%
N#Cc1ccc(C(=O)Nc2nnc(-c3cccs3)o2)cc1,-22%,?
CC1C(=O)C(C)C(c2ccc(Cl)cc2)NC1c1ccc(Cl)cc1 (centres undefined),-20%,-9%
COc1ccc(-c2cc(C(=O)N3CCN(c4ccccc4OC)CC3)no2)cc1OC,?,3%
COc1ccc(-c2noc(CN(C(=O)C(C)(C)C)C(C)C)n2)cc1,-17%,-6%
CN1CCc2cc3c(c4c2[C@H]1[C@H](O)c1ccccc1-4)OCO3,?,22%
COC(=O)[C@]12CCCCC=C1N(CCc1ccc(OC)c(OC)c1)C(=O)[C@H](CC(=O)NCCC(C)C)C2,-10%,-24%
Cc1cc(C(=O)Cn2nc(C(=O)O)c3ccccc3c2=O)c(C)n1CC(F)(F)F,-17%,-11%
CCN(CC)C(=O)[C@H]1C[C@H](CC(=O)NCc2ccco2)C(=O)N2CCc3c([nH]c4cc(CCC(=O)N(C)C)ccc34)[C@]12C,i,-6%
Cc1ccsc1C1C=C(c2cccc(Br)c2)Nc2ncnn21 (centres undefined),·,-25%
COc1ccc(C)cc1NC(=O)NC1CCN(Cc2ccccc2)CC1,-12%,-23%
O=C(CN1CC(c2ccccc2)CC1=O)N/N=C/c1cc(Br)ccc1O (centres undefined),?,?
CCCC[C@@H]1C=C(C(=O)O)[C@H](c2ccc(CC)cc2)N1S(=O)(=O)c1ccc(C)cc1,i,-8%
COCCSc1ccccc1C(=O)Nc1nccs1,-12%,-7%
O=C(O)c1ccc(NC(=O)C2(c3ccccc3)CCCC2)cc1,i,-14%

# Filtered by structure, the compounds so far with a COOH group (7)
SMILES,VACV mCherry inh,VACV Venus inh
CC(Sc1nnc(COc2ccc([N+](=O)[O-])cc2)n1-c1ccccc1)C(=O)O (centres undefined),1%,-2%
COc1ccc(C(CC(=O)O)NS(=O)(=O)c2ccc(C)cc2)cc1OC (centres undefined),·,5%
O=C(NC(Cc1ccccc1)C(=O)NC(Cc1ccccc1)C(=O)O)c1ccccc1 (centres undefined),1%,-11%
CC(C)[C@H](NC(=O)CCn1nnc2ccccc2c1=O)C(=O)O,-17%,?
Cc1cc(C(=O)Cn2nc(C(=O)O)c3ccccc3c2=O)c(C)n1CC(F)(F)F,-17%,-11%
CCCC[C@@H]1C=C(C(=O)O)[C@H](c2ccc(CC)cc2)N1S(=O)(=O)c1ccc(C)cc1,i,-8%
O=C(O)c1ccc(NC(=O)C2(c3ccccc3)CCCC2)cc1,i,-14%

# Next part
SMILES,VACV mCherry inh,VACV Venus inh
COc1ccc(NC(=O)Cn2c(=O)oc3cc(S(=O)(=O)NC(C)C)ccc32)cc1OC,-13%,-7%
Cc1cnn(-c2cc(N/N=C/c3ccccc3F)ncn2)c1,·,-14%
CCOC(=O)C(NC(C)=O)(Nc1ccc(S(=O)(=O)Nc2onc(C)c2C)cc1)C(F)(F)F (centres undefined),i,-7%
CCOC(=O)Cn1c(=O)n(-c2ccccc2OC)c2nc(-c3ccc(C(C)C)cc3)nc(C(N)=O)c21,-21%,-18%
O=[N+]([O-])c1ccc(N2CCN(S(=O)(=O)c3ccccc3[N+](=O)[O-])CC2)cc1NCc1cccnc1,-18%,-27%
Cc1ccc(-c2csc(N3CCN(c4cc5c(cc4Cl)nc(C)n5CCN4CCCCC4)CC3)n2)cc1,-25%,?
COc1ccc(O)c2c(=O)c3c(OC)cc4c(c3oc12)C1C=COC1O4 (centres undefined),-20%,·
Cc1ccc(-c2nnc(NC(=O)CCS(=O)(=O)c3ccccc3)o2)c(C)c1,-3%,-29%
CC(=O)Oc1cccc2c1C(=O)c1c(OC(C)=O)cc(C(=O)O)cc1C2=O,13%&-8%,33%&-2%[activator]
CC1CC[C@@]2(C(=O)O)CC[C@]3(C)C(=CCC4[C@@]5(C)CCC(O)C(C)(C)C5CC[C@@]43C)C2C1C (some centres undefined),42%[activator],46%[activator]
OC(c1ccc(CN2CCCCC2)cc1)c1ncc(-c2ccccc2F)[nH]1 (centres undefined),i,-5%
CCN(CC(=O)Nc1ccc2c(c1)OCCO2)C(=O)C1CC(=O)N(c2ccc(OC)cc2OC)C1 (centres undefined),i,-12%
Cc1ccc(C)n1-c1ccc(C(=O)NN=C2CCCC2)cc1,?,5%
CCOc1ccc(CCNC(=O)C2CCN(S(=O)(=O)N3CCCCC3)CC2)cc1OCC,-12%,-7%
CCCOc1ccc(C(=O)Nc2c[nH]c(=O)[nH]c2=O)cc1,-12%,-4%
COc1ccc(/C=C2/SC(=O)N(CCCCCC(=O)Nc3ccccc3C(=O)O)C2=S)cc1,?,-9%
COc1cc(NC(=O)c2c(-c3ccccc3Cl)noc2C)c2ncccc2c1,i,-12%
CC1=CC(C)(C)N(C(=O)CSc2nnc(-c3ccccc3)o2)c2ccc(C)cc21,-19%,-9%

# Assay outcomes: PubChem, National Center for Advancing Translational Sciences (NCATS)
